Beta cell apopt: blocks beta cell apoptosis | protection from apoptosis, % (test concentration not listed) | INS-1E cytokine-induced death, ATP luminescence, 48 h; percent of positive-control rescue, neutral wells zero | AID 435005 | actives 0.8% (n = 300,000);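 active = all replicates at 75% or more, or half of them and the mean; inconclusive = half reach 75% but not the mean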;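 note: 0% = cytokine-treated negative control wells and 100% = positive control rescue; higher means more ATP so stronger rescue from cytokine killing; wells of about 40 µL received 100 nL stock; the first replicate is given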
Beta2AR agonist: agonists of human beta-2 adrenergic receptor inducing internalization; P07550; AID 504454; Am2.2-beta2AR cells, FAP receptor internalization, flow cytometry; reference of the scale not given here; response, % (test concentration not listed); actives 0.43% (n = 340,000);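 active = response above a set limit, near 3 SD of response in nonfluorescent compounds, cut at about 42% in these data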;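 note: stock transfer was 100 nL into about 11 µL; a reference agonist was the positive control; negative values mostly stem from fluorescent compounds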
Target sequence (P07550 whole entry, looked up): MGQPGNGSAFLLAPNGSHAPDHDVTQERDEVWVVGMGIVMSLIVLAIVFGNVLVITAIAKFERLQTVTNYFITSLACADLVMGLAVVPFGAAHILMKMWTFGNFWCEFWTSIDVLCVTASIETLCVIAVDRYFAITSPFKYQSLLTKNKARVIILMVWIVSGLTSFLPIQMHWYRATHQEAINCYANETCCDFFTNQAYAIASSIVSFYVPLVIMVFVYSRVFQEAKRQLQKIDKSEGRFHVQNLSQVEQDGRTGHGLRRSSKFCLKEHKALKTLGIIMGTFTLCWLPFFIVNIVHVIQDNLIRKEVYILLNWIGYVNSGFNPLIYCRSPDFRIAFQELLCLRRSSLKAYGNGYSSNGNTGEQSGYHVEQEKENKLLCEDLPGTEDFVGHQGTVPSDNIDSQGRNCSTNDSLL
LANA-H2B inh: blocks KSHV LANA binding to histone H2A/H2B; Q9QR71; cell-free LANA-H2A/H2B peptide, fluorescence polarization; inhibition, % (concentration not given with the values); actives 0.6% (n = 320,000); AID 2629; in the data active = inhibition mostly above about 10%, no sharp cut-off; inactive = mostly below about 6.7%;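 note: stock transfer was 7.5 nL into about 10 µL; 0% = median of vehicle wells and 100% = median of positive control wells; one replicate is shown; the record names a cut of 25% in any replicate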
UCH37 DUB inh: human UCH37 deubiquitinating enzyme inhibition | inhibition, % (test concentration not listed) | Q9Y5K5 | purified proteasome/UCH37, Ub-AMC cleavage fluorescence | AID 588478 | actives 0.33% (n = 330,000);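 active = mean of two replicates above 20%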;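 note: 0% = compound-free wells with enzyme and 100% = wells lacking proteasome; stock transfer was 100 nL into about 20 µL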
Target sequence (Q9Y5K5 whole entry, looked up): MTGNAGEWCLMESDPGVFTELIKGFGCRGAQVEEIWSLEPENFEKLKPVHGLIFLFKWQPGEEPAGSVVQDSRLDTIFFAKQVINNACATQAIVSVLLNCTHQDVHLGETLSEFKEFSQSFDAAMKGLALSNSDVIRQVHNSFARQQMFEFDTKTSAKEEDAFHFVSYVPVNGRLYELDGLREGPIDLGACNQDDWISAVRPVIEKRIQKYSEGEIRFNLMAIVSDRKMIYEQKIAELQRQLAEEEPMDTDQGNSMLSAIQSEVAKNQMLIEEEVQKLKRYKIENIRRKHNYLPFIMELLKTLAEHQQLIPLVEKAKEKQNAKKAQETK
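assay system = human UCH37 enzyme supplied as purified proteasome complex | amount = proteasome at 0.15 nM in the dispensed enzyme solution | schedule = 30 min compound-proteasome preincubation then 25 min substrate reaction, room temperature | measured by = fluorescence, ex 355 nm, em 460 nm | benchmarks = no-proteasome wells (full inhibition) and compound-free wells (no inhibition)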
A1 inh: inhibitors of the anti-apoptotic protein A1, read as caspase activation; actives 0.066% (n = 330,000); MEF A1-2A-BIM cells, Caspase-Glo 3/7 luminescence, 3 h; percent of clofoctol response, vehicle zero; AID 2462; caspase activation, % (no concentration beside the values);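 active = over half of replicate activation scores above 10%, or exactly half above 10 with the replicate mean above 10; inconclusive = replicate mean below 10 yet half the replicates above 10; inactive = over half of replicates below 10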;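 note: wells of about 30 µL received 50 nL stock; many hits fall short of the cut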
T cruzi inh: T. cruzi replication inhibition. inhibition, % (no concentration beside the values). T. cruzi beta-gal in NIH3T3, luminescence, 90 h. actives 1.4% (n = 300,000). AID 1885;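 active = mean inhibition across valid replicates above about 55%, limit read from the data; inconclusive = mean below that limit but half or more replicates reach it; inactive = mean below it, under half of replicates reach it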;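 note: signal also drops with host cell toxicity which is not excluded here; 0% = plate median of DMSO wells and 100% = zero luminescence signal; higher percent means less beta-gal luminescence so fewer parasites; stock transfer was 50 nL into about 50 µL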
RanGTP-Impb inh: disruptors of Ran-importin-beta complex formation – biochemical, FRET, CFP-Ran, YFP-importin-beta, homogeneous, primary screen; cell-free CFP-Ran/YFP-importin-beta FRET ratio; inhibition, % (test concentration not listed); actives 1.1% (n = 300,000);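 active = most replicates above 15%; inconclusive = exactly half above 15%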;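 note: 0% = DMSO wells and 100% = Ran loaded with GDP instead of GTP; wells of about 40 µL received 100 nL stock; the first replicate is given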
Calb FLC: C. albicans growth modulation with fluconazole; C. albicans CaCi-2 (fluconazole-resistant clinical isolate) + fluconazole, Alamar Blue growth, 48 h; growth inhibition, % (no concentration beside the values); actives 0.57% (n = 300,000);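 active = most replicates above 75%; inconclusive = exactly half above 75%; inactive = most below 75%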;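 note: all wells also contain fluconazole at 8 µg/ml as a sub-toxic cotreatment; 0% = median of DMSO wells and 100% = median of geldanamycin control wells; wells of about 8 µL received 7.5 nL stock; the first replicate is given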
* = called active by the depositor; u = inconclusive; x = not tested or not shown.

SMILES	Beta cell apopt	Beta2AR agonist	LANA-H2B inh	UCH37 DUB inh	A1 inh	T cruzi inh	RanGTP-Impb inh	Calb FLC
CC(=O)C1=C(O)C(=O)N(Cc2ccccc2)C1c1cccc([N+](=O)[O-])c1 (stereo not given)	-7	-1	-3.5	-0.8	1.2	-13	u	-3
CCCCOc1ccccc1NC(=O)CSc1nnnn1C(C)(C)C	-3	6	-0.1	0.8	0.2	4	0.1	-28
N/C(=N\OC(=O)CCCC(=O)O)c1ncc(C(F)(F)F)cc1Cl	x	-6	-4.1	x	-0.8	-4	-2.6	1
COC(=O)CCCNC(=O)c1ccc2oc(CCCc3ccccc3)nc2c1	x	2	4.7	0.5	-0.5	-13	-0.3	11
COc1ccc(S(=O)(=O)Nc2nc3c(s2)CCCC3)cc1	-1	-8	-6.6	3.2	0.0	18	u	-5
CCC1CN(C)C2Cc3c([nH]c4ccccc34)C(=O)CC1C2C(=O)OC (stereo not given)	x	2	-0.5	-40	-0.2	2	0.2	-2
NCCc1nnc(SCC(=O)Nc2ccc(Br)cc2)o1	0	-9	-0.3	7.1	0.2	2	-4.6	-3
COc1ccc(C2C(C#N)=C(N)Oc3c2oc(CO)cc3=O)c(OC)c1OC (stereo not given)	-1	17	-0.7	0.9	-0.3	-9	1.7	-5
Cc1cc(S(=O)(=O)NCc2ccco2)c(C)cc1Cl	-4	0	-0.8	4.3	0.1	-11	-3.3	-7
CCc1ccc(C2=NNC(=Nc3c(C)n(C)n(-c4ccccc4)c3=O)SC2)cc1	-8	-3	3.4	1.5	1.0	-4	-1.2	3
Cc1ccn2cc(CCNC(=O)C3CC=CCC3C(=O)O)nc2c1 (stereo not given)	-3	-7	-8.3	-1.4	0.6	-3	0.1	-7
CCOC(=O)c1cnn(-c2cc(C)nc3c(-c4ccccc4)c(C)nn23)c1N	10	-15	-8.0	-3.1	u	-4	-0.6	-4
COc1ccc(C)cc1NS(=O)(=O)c1cn(C)c(=O)n(C)c1=O	-5	30	4.0	2.1	0.0	-9	u	24
O=C(Nc1cc(S(=O)(=O)N2CCOCC2)ccc1N1CCCC1)C1COc2ccccc2O1 (stereo not given)	1	-1	-4.6	6.9	0.3	2	1.7	0
O=C(Nc1cc(Cl)ccc1N1CCCCC1)c1cccs1	-6	-11	-0.3	0.6	0.3	4	-0.5	0
CC(=O)Nc1ccc(C2(c3ccc(NC(C)=O)cc3)NC(=O)c3ccccc32)cc1	-9	1	-1.7	-0.1	1.0	-14	3.0	-3
CCc1noc(C)c1C(=O)Nc1sc(C(=O)N(C)C)c(C)c1C#N	0	2	2.6	13	-0.3	-7	2.2	8
COc1ccc(-c2cc(C(F)(F)F)nc(SCc3cccc(C(=O)O)c3)n2)cc1	-8	-1	1.2	-32	0.1	-10	0.8	62
COC(=O)COc1ccc2c(=O)c(Oc3ccccc3)c(C)oc2c1	-5	14	-4.6	-0.9	-0.3	-3	0.4	-4
CCOc1nc(NC(C)C)nc(NC(C)C)n1	-2	3	-4.2	-0.6	0.3	-9	0.3	-20
COc1ccccc1NC(=O)COC(=O)CCc1ccc(S(=O)(=O)N2CCOCC2)cc1	0	3	-0.4	2.1	-0.2	x	x	x
CCC(C)[C@H](NC(=O)N1CCn2c1nc1ccccc12)C(=O)NCc1ccccc1 (stereo not given in full)	-3	-12	0.8	3.7	-1.1	17	1.3	1
O=C(CSc1ccccc1C(=O)O)NC1CCCCCCC1	-1	3	0.6	3.1	1.1	-11	-1.0	-17
C/C=C/c1ccc(OCCCN2C(=O)NC(C)(C)C2=O)c(OC)c1	1	2	2.5	0.9	0.2	4	1.7	-10
Cc1[nH]c2ccccc2c1/C=N/NC(=O)c1ccc(N)cc1	-6	-13	-3.9	x	-0.4	2	-1.3	2
Cc1noc(C)c1C(=O)OCC(=O)N1CCc2ccccc21	4	-3	-1.6	-0.2	-2.0	x	x	x
N=c1n(CCN2CCCCC2)c2ccccc2n1CC(=O)c1ccc(Cl)c(Cl)c1	39	29	-1.3	x	-0.1	30	-0.7	8
NS(=O)(=O)c1ccc(CNC(=O)c2ccccn2)cc1	-5	-10	1.4	1.5	0.0	-11	1.5	-3
COc1ccccc1CC(=O)Nc1ccc(O)cc1C(=O)O	x	0	5.6	-13	0.8	-10	3.2	-6
COc1ccccc1NC(=O)Nc1c(C)n(C)n(-c2ccccc2)c1=O	-9	4	0.7	3.1	3.2	-5	0.2	6
O=C(COC(=O)CCc1nc2ccccc2c(=O)[nH]1)NCc1ccc(F)cc1	0	-2	-2.5	3.4	-0.1	2	1.3	-2
COc1ccc(CC(=O)N2CCN=C2SCc2cccc([N+](=O)[O-])c2)cc1	-1	1	3.2	3.3	0.4	2	1.2	7
CC(=O)c1cccc(CN2CCN(Cc3ccc(F)cc3)C(CCO)C2)c1 (stereo not given)	-3	1	-2.3	0.5	-0.2	27	-0.2	-5
COc1ccc(Nc2cc(C)nc3ccc(OC)cc23)cc1	49	4	12	7.3	-0.2	31	2.3	18
Cc1ccc(C)c(NC(=O)c2ccc3nccnc3c2)c1	-1	11	4.6	1.7	-0.9	-5	-0.1	-3
Cn1cc(Cl)c(C(=O)OCC(=O)Nc2cccc(Cl)c2)n1	x	3	x	5.2	x	-14	3.5	-6
COc1ccc(NC(=O)CSc2nnc(C3CC3)n2C)cc1S(=O)(=O)N1CCOCC1	-3	-4	-1.5	0.7	-0.6	x	x	x
COc1cc(OC)c2c(-c3ccccc3)cc(=O)oc2c1	0	-4	3.5	0.6	-0.8	0	1.3	1
Cc1ccc(S(=O)(=O)CC(=O)N(CCCN(C)C)c2nc3ccc(C)cc3s2)cc1	-5	9	x	2.3	1.3	65*	21*	-4
Cc1cc(/C=C(\C#N)C(=O)OCC#N)c(C)n1CC(C)C	3	5	2.0	1.5	0.3	6	-2.8	-3
CCN(CC)CCN(Cc1cc2cc(C)ccc2[nH]c1=O)C(=O)Nc1ccccc1OC	5	4	0.9	2.2	0.8	9	-0.9	-3
O=C(c1ccc(F)c(F)c1)N1CCC2(CC1)NCCc1[nH]cnc12	-2	6	3.0	1.8	0.7	7	0.9	-2
CCN(CC(=O)Nc1c(F)cccc1F)C(=O)C1CCN(S(=O)(=O)c2ccc(C)c(C)c2)CC1	x	7	-0.1	2.3	-0.4	-6	2.2	3
COc1ccccc1CNC(=O)CN(c1ccc(C)cc1)S(=O)(=O)c1c(C)noc1C	11	16	-4.1	5.4	-0.6	9	-0.1	-5
CN(C)c1nc(N)nc(CSc2nc3c(c(=O)n(C)c(=O)n3C)n2Cc2ccccc2F)n1	-9	-57	-8.8	0.2	-0.1	5	-1.3	16
CC1=C(C(=O)Nc2cccc(C(=O)NC(C)c3ccccc3)c2)SCCO1 (stereo not given)	-2	3	3.0	7.1	0.5	7	u	4
CC/C(=N/N=C(\CC)c1ccccc1)c1ccccc1	-5	13	-3.7	x	1.6	-7	-1.9	-18
O=C(Nc1ccccc1-c1ccccc1)c1ccccc1	0	4	-2.8	-1.5	-0.2	-10	1.7	-4
COc1cccc(N2CCN(C(=O)C3CCN(S(=O)(=O)c4cccs4)CC3)CC2)c1	-1	4	2.7	1.1	-0.3	-10	u	-9
COC(=O)C1CCN(C(=O)COC(=O)c2n[nH]c3ccccc23)CC1	1	-4	2.8	2.8	-0.9	-19	-0.6	-3
CCOCCCNC(=O)C(NC(=O)c1ccc2c(c1)OCO2)c1ccc(Cl)cc1 (stereo not given)	8	-4	2.8	0.4	1.6	-13	7.8	7
C=CCN(c1ccc(C(=O)NCCN2CCOCC2)cc1)S(C)(=O)=O	-2	7	-2.0	5.7	-0.1	-18	-1.0	-3
CN(CC(=O)Nc1cccc(F)c1)C(=O)c1cc(S(=O)(=O)N2CCN(c3ccccc3)CC2)ccc1Cl	-17	11	-1.5	2.1	-0.3	x	x	x
CC(C)Cn1c(=S)[nH]c2ccccc2c1=O	0	-10	1.0	1.7	-0.6	-21	-1.2	0
C=CCn1c(SCC(=O)Nc2ccccc2CC)nnc1-c1ccncc1	5	10	0.3	1.6	0.3	-11	4.9	20
CNS(=O)(=O)c1cc(OCC(N)=O)c(C)cc1Cl	-8	0	-5.1	-1.1	0.1	-21	-0.6	-1
CCCCOc1ccc(C)cc1CN(CCO)CCO	-6	1	-0.3	2.3	0.6	-6	-1.3	-3
Cc1c(NC(=S)N/N=C/c2ccc(N(C)C)cc2)c(=O)n(-c2ccccc2)n1C	-5	-8	1.3	x	u	1	7.6	22
Cc1c(N=NC2=C(O)CC(C)(C)CC2=O)cc2c(c1[N+](=O)[O-])C(C)(C)CC2(C)C	1	9	-23	5.2	0.7	5	-2.4	-5
N#CC(c1ccc(=O)[nH]n1)c1ccc(Cl)cc1Cl (stereo not given)	-1	1	-0.3	1.1	-0.3	-21	-3.5	56
Following part:
SMILES	Beta cell apopt	Beta2AR agonist	LANA-H2B inh	UCH37 DUB inh	A1 inh	T cruzi inh	RanGTP-Impb inh	Calb FLC
Cc1ccc2nc(NC(=O)C3CC3C)sc2c1 (stereo not given)	x	-4	3.1	5.0	-2.3	40	-1.1	4
O=C(CN1C(=O)c2ccccc2C1=O)N1CCN(c2ccccn2)CC1	-4	1	-0.7	1.0	-0.3	-7	8.3	1
Cc1ccc2[nH]c(=O)c(CN(CCCN(C)C)C(=O)Nc3ccc(F)cc3)cc2c1	x	1	4.9	-0.5	0.3	-5	u	10
CCCc1cc(=O)[nH]c(SCc2cc(=O)oc3cc(C)c(C(C)C)cc23)n1	x	12	6.3	1.6	-0.3	u	4.6	6
Cc1ccc(-c2cc(-c3ccc(C)cc3O)[nH]n2)cc1	-45	4	5.6	0.6	-0.5	-3	-2.1	-2
COC(=O)c1c[nH]n2c(=O)c(C(C)C)c(C)nc12	7	-1	2.1	0.4	-1.3	-2	-1.0	-14
CC(C)(C)c1cc(C(=O)O)n[nH]1	-1	2	0.5	0.9	-0.4	-22	u	-14
O=C(Nc1nnc(SCc2cccc(F)c2)s1)c1ccco1	1	-3	4.0	3.9	-0.7	-19	3.1	42
Cc1cccc(/C=C/c2onc(C)c2S(=O)(=O)N2CCC(C(=O)N3CCCCCC3)CC2)c1	19	3	-3.9	-0.2	-0.6	-16	0.8	-16
N#C/C(C(N)=O)=c1/ccc2c(c1)N1C3=C(CCCC3)CC3CCCCC31N=2 (stereo not given)	46	x	-16	x	-1.0	35	u	58
C=CCn1c(SCC(=O)NCc2ccco2)nc2ccccc2c1=O	1	6	1.5	0.3	0.7	4	-2.1	0
COCC1CCN(Cc2c(C(=O)N3CCc4ccccc4C3)nc3ccc(Cl)cn23)C1 (stereo not given)	-3	-4	-5.6	-10	0.1	4	u	-22
Nc1nnnn1NCc1cccc(OCc2ccccc2)c1	0	-12	9.2	1.4	-1.7	3	-0.4	1
CCN(CC)CCOCCOc1ccccc1F	-3	9	3.7	3.7	0.4	-8	1.1	4
Cc1cc(NC(=O)CC2CCCC2)ccc1Br	0	-6	0.1	3.8	-0.8	-9	3.5	-2
CC(C)(C)c1ccc(NC(=O)CSc2n[nH]c(=O)n2C2CC2)cc1	-1	12	-0.6	-1.9	-0.4	x	x	x
COc1cc2c(cc1OC)C(C)N(C(=O)C(NC(=O)c1ccccc1)C(C)C)CC2 (stereo not given)	-3	1	1.6	1.8	-0.2	-7	-1.8	-1
